High-throughput results: PubChem, several laboratories
HIV Env fusion: inhibitors of HIV-1 Env-driven cell-cell fusion, primary screen, HeLa-JRFL effector, CEM21 target cells, luciferase; 1.1% of 360,000 active; AID 651610, 2012; inhibition, % at 12.3 µM;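 active means mean replicate inhibition score of at least 50 and every replicate individually at or above 50; inconclusive means only one of the two criteria met; inactive means mean below 50 and not all replicates reaching 50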;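 further: 0% = plate neutral controls and 100% = maraviroc near 300 nM; one replicate is shown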
PABP polyA inh: PABP poly(A) RNA binding inhibitors, primary screen, biochemical, fluorescence polarization, uHTS | Polyadenylate-binding protein 1 (Homo sapiens), P11940 | inhibition, % at 35 µM | 1% of 290,000 active;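 active means 50% or more with normal probe brightness, or confirmed in later tests; inconclusive means above 50% with abnormal brightness, or retests that disagree; inactive means below 50% or failed in later tests; about a fifth of its hits are not listed in these tables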;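 further: calls also rest on retests at 20 µM and on dose response follow-up; controls were probe without protein and protein plus probe with vehicle; some compounds called inactive have numbers as strong as hits; many hits fall short of the cut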
Target sequence (P11940 whole entry, looked up): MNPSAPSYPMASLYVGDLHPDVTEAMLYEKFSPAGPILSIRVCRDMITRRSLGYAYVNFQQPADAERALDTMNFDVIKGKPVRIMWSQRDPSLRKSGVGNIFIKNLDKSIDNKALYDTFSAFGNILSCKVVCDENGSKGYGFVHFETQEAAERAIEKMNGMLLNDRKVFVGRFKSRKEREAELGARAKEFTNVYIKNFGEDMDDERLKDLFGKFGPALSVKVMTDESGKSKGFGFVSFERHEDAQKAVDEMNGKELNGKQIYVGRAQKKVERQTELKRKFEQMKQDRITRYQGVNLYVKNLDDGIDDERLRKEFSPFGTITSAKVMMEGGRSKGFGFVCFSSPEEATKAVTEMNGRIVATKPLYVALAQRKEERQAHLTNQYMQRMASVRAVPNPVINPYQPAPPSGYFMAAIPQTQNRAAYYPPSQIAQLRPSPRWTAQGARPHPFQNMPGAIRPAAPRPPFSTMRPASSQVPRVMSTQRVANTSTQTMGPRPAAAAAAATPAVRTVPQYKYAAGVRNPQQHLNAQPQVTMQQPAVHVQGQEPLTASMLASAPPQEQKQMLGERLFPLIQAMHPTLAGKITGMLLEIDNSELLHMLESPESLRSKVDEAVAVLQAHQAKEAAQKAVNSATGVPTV
eIF4H inh: human eIF4H binding inhibitors, primary screen, translation initiation inhibitor project, biochemical, uHTS, fluorescence polarization; Eukaryotic translation initiation factor 4H (Homo sapiens), Q15056; eIF4H fluorescence polarization binding assay; inhibition, % at 35 µM; 0.94% of 290,000 active; AID 2012, 2009;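 active means 50% or more with normal probe brightness, or confirmed in later tests; inconclusive means above 50% with abnormal brightness, or retests that disagree; inactive means below 50% or failed in later tests; about a fifth of its hits are not listed in these tables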;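 further: calls also rest on retests at 20 µM and on dose response follow-up; 0% = protein and probe with vehicle and 100% = probe without protein; strong numbers were not always called active; many hits fall short of the cut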
CSC inhib: cancer stem cell viability inhibitors, primary screen, luminescence. cancer stem cell-like cells viability. inhibition, % at 7.5 µM. 1.1% of 300,000 active;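 active means mean at 75% or more and at least half the replicates too; inconclusive means mean and replicates disagree; tested in HMLE shEcad cells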;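 further: 0% = median of negative and 100% = median of positive control wells; the first replicate is given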
MT1-MMP act inh: blockers of MT1-MMP proenzyme processing, primary screen, HT1080 RFP-PRO-GFP cells, GFP/RFP fluorescence; Matrix metalloproteinase-14 (Homo sapiens), P50281; 0.061% of 360,000 active; AID 651647, 2012; GFP/RFP ratio change, % at 20 µM; GFP/RFP ratio fluorescence, overnight; percent of plate control window, DMSO zero;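 active means GFP/RFP ratio change of at least 30% with cell ATP level not reduced by more than half and red fluorescence within 50% of control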; further: strong numbers were not always called active
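Assay system: HT1080 RFP-PRO-GFP cells. Benchmarks: DMSO vehicle wells and RFP-L50D-GFP reporter cell wells. Times: overnight cell settling, then overnight compound exposure, 37 °C, 5% CO2. Compound: 20 µM single dose, 1% DMSO. Read-out basis: GFP/RFP fluorescence ratio.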
Rce1 inhib: yeast Rce1p protease inhibitors, primary screen, biochemical, fluorescence, cell-free homogeneous; calls only; 0.27% of 290,000 active; yeast membranes, quenched prenylated peptide cleavage fluorescence; CAAX prenyl protease 2 (Saccharomyces cerevisiae (strain ATCC 204508 / S288c)), Q03530;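 active means fall in fluorescence gain of 50% or more versus controls, with final raw signal at or below 3038400; inconclusive means same 50% fall but final raw signal above 3038400; inactive means fall in fluorescence gain under 50%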;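 further: plate controls were neutral control wells for no effect and wells lacking membranes for full effect; tested at 10 µM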
Target sequence (Q03530 whole entry, looked up): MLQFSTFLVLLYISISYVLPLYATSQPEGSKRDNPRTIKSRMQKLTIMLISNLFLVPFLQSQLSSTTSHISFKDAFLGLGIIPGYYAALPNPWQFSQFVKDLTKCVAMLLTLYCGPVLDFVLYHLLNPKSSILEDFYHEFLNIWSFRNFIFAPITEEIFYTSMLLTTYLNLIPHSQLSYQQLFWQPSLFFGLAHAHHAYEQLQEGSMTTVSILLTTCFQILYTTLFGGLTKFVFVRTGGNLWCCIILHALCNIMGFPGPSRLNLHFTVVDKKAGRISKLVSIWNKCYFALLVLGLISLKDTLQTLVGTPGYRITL
UUG fidelity: modulators of yeast start codon fidelity, primary screen, whole organism, S. cerevisiae, single point, plate reader; S. cerevisiae UUG-firefly luciferase reporter, luminescence/redox ratio; activity score, % at 18.7 µM; 0.13% of 350,000 active; AID 602363, 2012;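 active means replicate mean at a twofold rise or more, about +100% in these data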;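 further: firefly luciferase made from a UUG start codon reports start codon fidelity; reporter light over untreated wells divided by growth signal over untreated wells; some hits fall short of that in this replicate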
eIF4H inh retest: further read-out of eIF4H inh, marked with its call; inhibition, %; compound at 20 µM; confirmation average;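 mean of two retest wells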
PABP polyA inh retest: also measured in PABP polyA inh; calls as there; inhibition, %; compound at 20 µM; confirmation repeats;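 mean of two retest wells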
MT1-MMP act inh RFP: also measured in MT1-MMP act inh; calls as there; RFP signal change, %; measured here: RFP expression control read;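 0 = vehicle wells; hits needed this value within 50% of zero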
* marks the source's active call; other numbers are inactive results; i = inactive; ? = inconclusive; . = no result given; + = active, no number. A portion of the library; the hit share may differ from the screen's.

SMILES	HIV Env fusion	PABP polyA inh	eIF4H inh	CSC inhib	MT1-MMP act inh	MT1-MMP act inh RFP	Rce1 inhib	UUG fidelity	others
O=C(COC(=O)c1ccccc1)Nc1ccccc1Br	-23	-10	1	-4	2	8	i	.
COc1ccccc1C/C(N)=N/OC(=O)c1cccs1	-8	-12	-1	.	-5	-3	i	.
CON/C=C(\C=Nc1ccc(Cl)cc1)c1ncc(C(F)(F)F)cc1Cl	-31	-9	-4	-5	0	-3	.	-3
O=C(/C=C/c1ccccc1)NC(=S)Nc1ncccn1	8	4	-5	3	-2	-6	i	.
Cn1c(-c2sc(=S)n(-c3ccccc3)c2N)nc2ccccc21	.	-13	-1	-8	-3	5	i	-2
Cn1nc(NC(=O)C(C)(C)C)c2c(F)cccc21	-5	-5	0	1	3	3	i	-15
COC(=O)C1Cc2ccccc2CN1S(=O)(=O)c1ccc(F)cc1 (configuration not stated)	14	-1	-4	-9	-3	3	i	4
Cc1ccc(NS(=O)(=O)c2cccc(C(=O)NCC(c3cccs3)N(C)C)c2)cc1 (configuration not stated)	-23	88	-14	-8	-6	-4	i	8	eIF4H inh retest=-2;PABP polyA inh retest=10
Cc1ccc(Cn2ncn(-c3ccccc3)c2=O)cc1	-7	-2	10	4	-1	-1	i	.
COc1cccc(C2CC(=O)C3=C(C2)Nc2ccccc2N(C(=O)CCC(=O)O)C3c2ccc(F)cc2)c1 (configuration not stated)	-12	8	6	.	0	1	+	1
Cn1c(CCN2CCCCCC2)nc2cc(NC(=O)Nc3ccccc3)ccc21	-369	-21	-9	-1	-6	-8	i	.
CCC(=O)N/C(N)=N/c1nc2ccccc2o1	-113	-1	-7	-4	-3	-2	i	.
O=C(NNS(=O)(=O)c1ccccc1)c1ccc(S(=O)(=O)N2CCCCC2)cc1	10	-10	-6	.	1	3	i	.
Cc1ccc(Nc2ccc(C(=O)NCCc3ccccc3)cn2)cc1	3	56	-4	22	-1	0	i	-10	eIF4H inh retest=-6;PABP polyA inh retest=-5
CCCc1cc(C(=O)N2CCCC(Cc3ccccc3C)(C(=O)OCC)C2)no1 (configuration not stated)	3	1	-7	8	3	-3	i	17
CCc1cccc(NC(=O)Cn2c(-c3ccccc3)cc(C(C)=O)c2C)c1	25	-2	-4	1	-3	-5	i	.
CC1CCCC(C)N1C(=S)NCc1ccco1 (configuration not stated)	3	10	14	18	-2	4	i	.
CCOC(=O)c1ccc(N2C(=O)C3CC=CCC3C2=O)cc1 (configuration not stated)	.	-4	-1	-5	-3	-1	i	-17
COC(=O)c1sccc1NC(=O)c1cc(-c2cc(C)ccc2C)nc2ccccc12	.	5	-5	15	-2	-2	.	.
COc1cc(/C=C2/C(=O)NN(c3ccc(Cl)cc3)C2=O)cc(OC)c1O	-6	?	?	1	-1	9	i	-7
CC(C)CCCN1C(N(C)C)=NC[C@@H]1Cc1ccccc1	-18	.	.	-11	1	3	.	-9
CC(=O)c1cccc(CN2CCC(CO)(CCCc3ccccc3)CC2)c1	9	-8	-5	49	-1	4	i	.
CCCCNC(=O)C(CC)(ONc1ccccc1C(F)(F)F)c1ccccc1OC (configuration not stated)	27	.	.	-1	-19	-4	.	-13
CCOc1ccc(NC(=O)CSc2nnc(-c3ccco3)n2N)cc1	-1	-8	-6	-17	3	5	i	3
Cc1cc(C)c2c(-n3cccc3)c(NC(=O)OC(C)C)sc2n1	.	-7	2	0	-3	-5	i	-4

Reprinted from the part before: four entries; new compounds follow.
SMILES	HIV Env fusion	PABP polyA inh	eIF4H inh	CSC inhib	MT1-MMP act inh	MT1-MMP act inh RFP	Rce1 inhib	UUG fidelity	others
CC(=O)c1cccc(CN2CCC(CO)(CCCc3ccccc3)CC2)c1	9	-8	-5	49	-1	4	i	.
CCCCNC(=O)C(CC)(ONc1ccccc1C(F)(F)F)c1ccccc1OC (configuration not stated)	27	.	.	-1	-19	-4	.	-13
CCOc1ccc(NC(=O)CSc2nnc(-c3ccco3)n2N)cc1	-1	-8	-6	-17	3	5	i	3
Cc1cc(C)c2c(-n3cccc3)c(NC(=O)OC(C)C)sc2n1	.	-7	2	0	-3	-5	i	-4
O=[N+]([O-])c1cccnc1NCc1cccs1	-7	-4	0	-4	4	7	i	-17
CC(C)(C)n1nc2c(c1NC(=O)c1ccc(Br)cc1)CS(=O)C2 (configuration not stated)	-7	0	-1	-9	-3	0	i	-14
CCC(C)C(NS(=O)(=O)c1ccc(C)cc1)C(=O)O (configuration not stated)	28	6	10	10	-3	0	i	-4
COc1ccc(CCNC(=O)C2CCC(=O)N2S(=O)(=O)c2ccc(C)cc2)cc1 (configuration not stated)	-22	-7	-8	-4	-3	-2	i	-18
COc1ccccc1C(=O)Nc1c(C(=O)N2CCN(C)CC2)oc2ccccc12	-19	0	-15	16	-1	2	i	-5
CN(C(=O)CSc1nnc(-c2ccc3c(c2)OCO3)o1)C1CCS(=O)(=O)C1 (configuration not stated)	-4	.	.	-18	-1	4	.	-6
CC1Cc2cc(S(=O)(=O)N3CCN(c4cccc(Cl)c4)CC3)ccc2N1C(=O)C1CC1 (configuration not stated)	12	2	7	-3	4	-10	i	-19
CC(C)Cn1c(=O)c2c(nc3n2CCS3)n(C)c1=O	-11	25	9	4	0	-2	i	4
COc1cccc(C(=O)Nc2cccc(C(C)=O)c2)c1	.	-11	-2	-10	3	1	i	-7
Cc1ccc(NC(=O)CSc2nccn2C)cc1S(=O)(=O)N1CCOCC1	21	1	5	0	-5	-1	i	.
CCOc1cc(Br)c(C(=O)O)cc1OCC	-24	10	3	3	5	1	i	-22
COc1cccc(C(=O)Nc2cccc3ccccc23)c1OC	-3	0	-6	-8	2	4	i	-21
CCOC(=O)[C@H]1[C@H]2COc3ccccc3[C@@H]2N2C(=O)c3cc(F)c(F)cc3NC(=O)[C@@]12C	-126	.	.	12	-3	4	.	0
COc1ccc(/C=N/NC(=O)c2cc(Br)ccc2O)cc1Cn1cc(Cl)cn1	-6	1	4	-7	-1	1	i	-10
Cc1noc(/C=C/c2cccnc2)c1[N+](=O)[O-]	-50	6	8	30	-3	-9	i	-31
COc1cc(C(=O)OCC(=O)NC(=O)NCc2ccccc2)ccc1OC(F)F	8	.	.	.	3	4	.	-13
CCNc1nc(NC(C)(C)C)nc(N2CCCCC2)n1	28	-8	7	23	-20	-16	i	.
CCN(CC)c1ccc(/C=N/n2nnnc2N)c(O)c1	-169	31	11	25	1	2	i	-7
COc1ccc(NC(=O)CCn2cccc2)cc1	.	-6	-10	6	1	3	i	-4
CO/N=C/NC(=O)Cc1cn(-c2ncc(C(F)(F)F)cc2Cl)c2ccccc12	.	-1	-6	-6	-2	-15	i	-16
COc1ccc(OC)c(NC(=O)Cc2c(C(=O)O)n(C)c3ccccc23)c1	0	5	4	2	1	3	i	-10
O=[N+]([O-])c1ccc(N2CCOCC2)cc1NC(c1ccccc1)c1ccccc1	8	-2	0	12	-2	-4	i	.
CC1(C(=O)NS(=O)(=O)Cc2ccccc2C(F)(F)F)CCN1C(=O)C/C=C/c1ccccc1 (configuration not stated)	-188	.	.	.	11	3	.	-4
Cc1ccc(-n2cc(CN3CCC(O)(c4ccccn4)CC3)c(-c3ccc(F)cc3)n2)cc1	-57	-12	-11	4	-1	-4	i	.
Cc1cc(C(F)F)n2nc(C(=O)Nc3cccnc3Cl)nc2n1	.	3	-8	-7	0	3	i	-10
Following part:
SMILES	HIV Env fusion	PABP polyA inh	eIF4H inh	CSC inhib	MT1-MMP act inh	MT1-MMP act inh RFP	Rce1 inhib	UUG fidelity	others
Cc1ccc(C(=O)c2coc3cc([N+](=O)[O-])c(O)c([N+](=O)[O-])c23)cc1	-7	18	89	13	8	0	i	.	eIF4H inh retest=-4;PABP polyA inh retest=2
CC(C)Cc1cc(C(=O)NCc2cccs2)no1	-23	-16	-3	-13	-2	5	i	-22
COc1ccccc1C(=O)N(Cc1ccc(C)o1)C1CCS(=O)(=O)C1 (configuration not stated)	-4	6	-6	-22	-1	4	i	-8
COc1ccc(-c2csc(N(CCCN(C)C)C(=O)c3ccc(C)cc3)n2)cc1	9	8	-10	-7	-8	-6	i	-7
O=[N+]([O-])c1ccc(N2CCCC2)nc1N1CCCC1	-11	0	-2	.	0	-6	i	11
COC(=O)C1=C(C)N=C2SC(C)C(=O)N2C1c1cccc(F)c1 (configuration not stated)	-79	5	8	11	-12	-11	i	-13
O=C1CCCc2oc3c(c21)CCCC3	-6	8	-5	.	1	1	i	-10
CCc1nnc(NC(=O)C2CCCN2S(=O)(=O)c2ccc(F)cc2)s1 (configuration not stated)	-52	5	-4	-6	4	-1	i	-9
O=C(CN(C1CCCCC1)S(=O)(=O)c1ccc(Cl)cc1)NCc1ccncc1	.	0	1	-13	-1	-1	i	-3
O=C(Nc1cc(Cl)ccc1N1CCOCC1)c1cccnc1	3	3	4	-10	-5	-4	i	-11
Cn1c(=S)c2[nH]c(SCCN)nc2n(C)c1=O	12	.	.	.	3	-9	.	-18
CC(C)(C)c1ccc(S(=O)(=O)NC(=O)C2(C)CCN2C(=O)Cc2cc(F)ccc2F)cc1 (configuration not stated)	9	.	.	.	1	3	.	-13
C[N+](C)(C)CCN1C(=O)CSC1=O	7	33	5	-12	2	4	i	.
CCOc1ccc(NC(=O)Cn2nnc(C(=O)NCCc3ccc(OC)c(OC)c3)c2N)cc1	-7	-2	4	19	1	3	i	.
O=C(Nn1c(-c2ccccc2)nc2ccccc2c1=O)c1ccco1	-75	3	-3	-9	3	4	i	-3
O=C1NCCN(Cc2cccc(Oc3ccccc3)c2)C1CC(=O)N1CCCCC1 (configuration not stated)	72*	11	0	-4	-1	2	.	-3
CCCNC(=O)CSc1nc(COc2ccccc2)nc2ccccc12	3	1	-10	-2	-2	-1	i	.
Cc1cc([N+](=O)[O-])nn1CC(=O)N/N=C/c1ccc(O)cc1O	-18	-3	7	80*	3	-2	i	-33
CCOC(=O)c1ccc(CC(=O)c2oc3cc(O)ccc3c2C)o1	.	118	115	-10	-32	11	i	-12	eIF4H inh retest=13;PABP polyA inh retest=23
Oc1c(C(c2cccs2)N2CCN(c3cccc(Cl)c3)CC2)sc2ncnn12 (configuration not stated)	-7	0	2	-2	-1	0	i	-4
CC(=O)N1CC2(C)CN(C(C)=O)CC(C)(C1)C2O (configuration not stated)	.	-6	-6	.	-1	1	i	-4
CCN(CC)CCCNc1oc(/C=C/c2ccccc2)nc1C#N	1	15	3	16	1	-2	?	-6
Cc1cc(C(=O)COc2ccc(Br)cc2F)c(C)n1CC1CCCO1 (configuration not stated)	-59	.	.	.	6	7	.	-4
CC(=O)Oc1ccc(-c2csc(Nc3cccc(C)n3)n2)cc1	-52	0	4	79*	1	-5	i	-20
Cc1ccc(S(=O)(=O)N2CCC(C(=O)Nc3ccccc3N3CCCC3)CC2)cc1C	-33	.	.	.	-1	-11	i	-21
